# VDR inhibitor – Inhibitors of the vitamin D receptor (VDR): qHTS. Vitamin D3 receptor (Homo sapiens), P11473. VDR-SRC2-3 peptide fluorescence polarization, 2 h. Potency, µM, inactives show max response, negative = inhibition, usual class: inhibitors. hit rate 0.93% among 400,000. AID 504847, 2011; active = well fitted inhibition curve with a large enough effect; inconclusive = small, poorly fitted or top-dose-only effect, or another doubt; inactive = no such curve, though single readings can be large or run the other way; note: series mostly up to about 120 µM
# Target sequence (P11473 whole entry, looked up): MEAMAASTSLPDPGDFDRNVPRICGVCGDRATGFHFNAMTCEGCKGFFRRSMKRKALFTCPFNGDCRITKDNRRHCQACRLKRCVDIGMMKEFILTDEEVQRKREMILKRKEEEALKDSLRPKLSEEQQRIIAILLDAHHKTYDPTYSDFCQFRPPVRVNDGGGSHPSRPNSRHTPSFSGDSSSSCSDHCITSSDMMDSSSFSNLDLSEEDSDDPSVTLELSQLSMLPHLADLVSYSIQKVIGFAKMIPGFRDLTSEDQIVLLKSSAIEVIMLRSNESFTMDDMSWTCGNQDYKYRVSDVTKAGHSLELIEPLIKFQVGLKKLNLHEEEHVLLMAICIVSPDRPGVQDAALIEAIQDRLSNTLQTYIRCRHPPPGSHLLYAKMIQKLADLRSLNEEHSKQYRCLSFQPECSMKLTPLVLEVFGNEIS
#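 Fluorescence polarization assay of small-molecule disruption of VDR binding to coregulator peptide SRC2-3. Compounds and controls pin-transferred, then read after 2 h incubation at ambient room temperature.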
# * marks the source's active call; other numbers are inactive results; u = inconclusive; & = joins results of further samples. % is set by controls: 0 for no effect and ±100 for the full control effect; potency is the fitted concentration of half-maximal effect. An excerpt, so the mix of outcomes need not match the whole.
SMILES,VDR inhibitor
Cc1ccc2c(c1)C(=O)OC(C(=O)Nc1ncc(Cc3ccccc3)s1)C2 (stereo unspecified),-25%
CCCC(=O)N(c1ccc2oc(C)c(C(C)=O)c2c1)S(=O)(=O)c1ccc(CC)cc1,6%
CC1CCCC(NC(=O)C2CCCN2S(=O)(=O)c2cccc3nsnc23)C1C (stereo unspecified),-15%
CCC/C(=C1/c2ccccc2C(=O)N1c1ccccc1)c1ccc2[nH]ccc2c1,3%
O=c1[nH]c2ccc(Cl)cc2[nH]1,-14%
O=C(NCCCn1ccnc1)c1cccc(S(=O)(=O)N2CCCCCC2)c1,0%
CCCCOc1ccc(C(=O)Nc2ccc(N3CCN(C(=O)C(C)C)CC3)cc2)cc1,1%
CS(=O)(=O)N(Cc1ccc(C(=O)NCCSc2ccccn2)cc1)c1ccccc1,-16%
CCOC(=O)c1cc2c(=O)n3ccccc3nc2n(CC(C)C)c1=NC(=O)C(C)(C)Oc1ccc(Cl)cc1,-19%
Cc1ccc(-c2cnc(C3CC3)o2)cc1S(=O)(=O)Nc1ccc(F)cc1Cl,-7%
O=C(c1cc(-c2cccc(Cl)c2)on1)N1CCCCCC1,-9%
Cc1cccn2c(=O)c3cc(C#N)c(=O)n(-c4nnc(SCc5ccc(F)cc5)s4)c3nc12,10%
Cc1ccc(NC(=O)C(=O)NCCN2CCN(S(=O)(=O)c3ccccc3)CC2)cc1C,-1%
N#Cc1ccc2[nH]cc(CCO)c2c1,-10%
CCCOC(=O)c1c(-c2ccccc2)nc(CC)c(C(=O)SCC)c1CCC,5%&-10%
COc1ccc2c(c1)C(=O)[C@H](OC(=O)Nc1ccc(OC(F)F)cc1)[C@@H](c1ccc(OC)c(Br)c1)O2,15%
Cc1ccc(N(Cc2ccc(C(=O)NN=C3CCN(C)CC3)cc2)S(C)(=O)=O)cc1C,0%
CNC(=S)N(CCc1c(C)[nH]c2ccc(F)cc12)Cc1ccco1,3%
COc1ccc(C(=O)O)cc1S(=O)(=O)N1CCSCC1,-3%
COc1ccc(Nc2n[nH]c(C)c2[N+](=O)[O-])cc1,-5%
Cc1ccc(S(=O)(=O)Nc2ccc3c(c2)c2c(n3S(=O)(=O)c3ccc(C)cc3)CCCC2=O)cc1,14%
Cc1ccc([N+](=O)[O-])cc1S(=O)(=O)N1CCN(C)CC1,2%
COc1ccc(OCC(=O)NNC(=O)c2cccc(O)c2)cc1,3%
Cc1cc(=O)[nH]c(-n2[nH]c3c(c2=O)CCCC3)n1,10%
CC(=O)Nc1cc(S(=O)(=O)Nc2ccc(C)cc2)c(C)cc1C,-3%
Cc1cc(N2CCN(c3ccccc3)CC2)n2cc(-c3ccccc3)nc2n1,-1%
CCOC(=O)N1C(=O)NC(=O)C1c1ccccc1 (stereo unspecified),-3%
Cc1ccc(Cl)cc1NC(=O)N[C@@H](C)C(=O)O,3%
COc1cccc(OC)c1NC(=O)CN1CCC(NC(=O)c2cccc(F)c2)CC1,15%
O=C1CCc2cc(S(=O)(=O)NC(Cc3ccccc3)C(=O)NCCC3=CCCCC3)ccc2N1 (stereo unspecified),-1%
COc1ccc(CNC(=O)COC(=O)c2c(-c3c(F)cccc3Cl)noc2C)cc1OC,-2%
CC(=O)c1cccc(NC(=O)c2csc3c2CCCCC3)c1,4%
COc1ccccc1/C=C/C(=O)NCC(=O)n1nc(C)cc1C,-10%
O=C1CC(C(=O)O)C(c2ccccc2)c2ccccc21 (stereo unspecified),2%
Nc1ccc(C(=O)Oc2ccc([N+](=O)[O-])cc2)cc1,-16%
C=C(C)Cn1c(SCC(=O)N/N=C/c2cccc(O)c2)nc2ccccc2c1=O,-2%
Cc1nnc(SCC(=O)Nc2ncc3c(n2)CCCC3=O)s1,-4%
COc1ccc2c(c1)c1c(n2C(C)=O)C(OC(C)=O)=NCC1,4%
COc1ccccc1NS(=O)(=O)c1cc(NC(=O)COc2ccccc2F)ccc1N1CCOCC1,u
CC(C)=CC(=O)Nc1ccccc1Br,14%
Cn1c(CCN2CCCCC2)nc2cc(NS(=O)(=O)c3ccc(F)cc3)ccc21,-2%
S=C(NCCc1ccccc1)NCc1cccs1,13%
O=C(Nc1nc(-c2ccc(Cl)cc2)cs1)NC1CCCCC1,-2%
CCCCOC(=O)c1[nH]c(C)c(C(=O)OC)c1C,4%
C[C@H](CO)N1C[C@H](C)[C@@H](CN(C)S(=O)(=O)c2ccc(Cl)cc2)Oc2ccc(NS(=O)(=O)c3ccccc3)cc2CC1=O,-8%
CCOc1ccc(S(=O)(=O)NCC2CCCO2)c2cccnc12 (stereo unspecified),-9%
N#CCC(=O)N/N=C/c1cc(-c2ccccc2)n(-c2ccc(Cl)cc2)c1-c1ccccc1,-4%
NCc1oc(-c2ccccc2)cc1C(=O)O,10%
CCOC(=O)c1cc(-c2ccccc2)sc1NC(=O)c1ccc(OC)c(OC)c1,79µM*
O=C(NCC(c1cccs1)N1CCOCC1)c1cccc([N+](=O)[O-])c1 (stereo unspecified),3%

# (next part)
SMILES,VDR inhibitor
Cc1cc(OC(=O)c2cccs2)ccc1C(C)C,3%
COc1ccccc1N1CCN(C(=O)c2cc3c(s2)-c2ccccc2OC3)CC1,-15%&-6%
CC(C)N(Cc1nnc(-c2ccccc2Br)o1)C(=O)c1cc(Cl)nc2ccccc12,28%
O=C1c2ccccc2CCC12N=NCC2c1ccc(Cl)cc1 (stereo unspecified),9%
CCOC(=O)CSc1nc2c(sc3ccccc32)c(=O)n1CCCN1CCOCC1,6%
COCCn1c(=S)[nH]c2cc(OC)c(OC)cc2c1=O,11%
CC(NC(=O)c1ccc2c(c1)OCCO2)C(=O)O (stereo unspecified),-1%
CS(=O)(=O)N(CC(=O)Nc1cccc([N+](=O)[O-])c1)c1cccc(F)c1,-10%
CCOC(=O)CC(=O)CSc1nccc(-c2cccnc2)n1,-6%
Cc1cccc(C)c1NC(=O)CNC(=O)CCC(=O)c1cccs1,-4%
COC(=O)c1cc(C(=O)NCc2ccccc2)c(=O)[nH]c1C,0%
COc1cccc(N2CCN(CC(=O)Nc3ccc(SC(F)F)cc3)CC2)c1,-22%
CCN(CC(=O)Nc1ccc(NC(C)=O)cc1)C(=O)CC1OC(=O)c2ccccc21 (stereo unspecified),-7%
O=C(O)c1c[nH]ccc1=O,-11%
Cc1cc(NC(=O)CSc2nnc3c(C)cc4cc(C)c(C)cc4n23)no1,-16%
CC(C)(C)OC(=O)NCCCCCNC(=O)c1[nH]cnc1C(=O)Nc1nccs1,-14%
COc1ccc(CCNC(=O)CSc2cn(CCNC(=O)c3cccc(C(F)(F)F)c3)c3ccccc23)cc1OC,-4%
COc1ccccc1C(=O)NC(C)c1ccccc1 (stereo unspecified),-19%
CCOC(CCn1c(SCc2ccc([N+](=O)[O-])cc2)nc2ccccc2c1=O)OCC,-21%
O=C(Nc1ccc(F)c([N+](=O)[O-])c1)C1CCCO1 (stereo unspecified),-16%
CCc1ccccc1NC(=O)CCn1cccn1,0%
COc1ccc(S(=O)(=O)N2CCCCCC2)cc1C(=O)Nc1ccccn1,-3%
CCOC(=O)C1=C(C)NC(=O)NC1c1ccc(OCC(=O)Nc2ccccc2)c(OC)c1 (stereo unspecified),0%
O=C(Oc1ccc(F)c(F)c1)c1ccc2c(=O)n3c(nc2c1)CCC3,-3%
Cc1cccc(NC(=O)COC(=O)CCc2ccccc2)c1C,-6%
CCC(=O)/C=C1\Sc2ccccc2N1CC,-33%
CC12CCC(C(=O)N(NC(=O)c3cc(Cl)ccc3O)C1=O)C2(C)C (stereo unspecified),6%
COc1cc(NC(C)C(=O)N2CC(C)OC(C)C2)cc(OC)c1 (stereo unspecified),18%
O=S(=O)(c1ccc(Cl)c(NC(=S)N/N=C/c2ccc(O)cc2)c1)N1CCOCC1,-5%
Cc1cccnc1NC(=O)CSc1ncnc2sc(C)c(C)c12,15%

# Another view of part of the listing above:
Structure | VDR inhibitor
COc1cc(NC(C)C(=O)N2CC(C)OC(C)C2)cc(OC)c1 (stereo unspecified) | 18%
O=S(=O)(c1ccc(Cl)c(NC(=S)N/N=C/c2ccc(O)cc2)c1)N1CCOCC1 | -5%

# The results go on.
SMILES,VDR inhibitor
O=C(c1ccc2c(c1)N(Cc1ccccc1)CCS2)N1CCOCC1,-6%
Cc1ccc(-c2nc(S(=O)(=O)c3ccc(C)cc3)c(N3CCCCCC3)o2)cc1,-1%
Cc1ccc(NC(=O)CCn2cnc3cc(C)c(C)cc32)cc1,5%
CCOC(=O)N1CCc2c(sc(NCc3sccc3C)c2C(=O)Nc2ccccc2OCC)C1,-17%
NC(=O)OC[C@H](O)COc1ccc(Cl)cc1,-8%
O=C(NCc1nc2ccccc2[nH]1)c1ccc([N+](=O)[O-])cc1,-4%
CC(C)[C@H](NC(=O)[C@H](CCCCN)NC(=O)[C@@H](NC(=O)[C@@H]1CCCN1C(=O)[C@H](CCCN=C(N)N)NC(=O)[C@H](CCCN=C(N)N)NC(=O)[C@H](CCCCN)NC(=O)[C@H](CCCCN)NC(=O)CNC(=O)[C@@H](NC(=O)[C@@H]1CCCN1C(=O)[C@@H](N)CCCCN)C(C)C)C(C)C)C(=O)N[C@@H](Cc1ccc(O)cc1)C(=O)N1CCC[C@H]1C(=O)O,-2%
Cc1nn(Cc2ccc(F)cc2Cl)c(C)c1[N+](=O)[O-],-3%
COc1ccc2[nH]c(=O)c(CN(C(=O)c3cccnc3)c3ccccc3C)cc2c1,-1%
CCCN1CCC(NC(=O)Cc2ccc(C)cc2)CC1,4%
Cc1ccc(Cn2ncc3c(N4CCN(c5ccccc5C)CC4)ncnc32)cc1,3%
N/C(=N\OC(=O)COc1cc(Cl)c(Cl)cc1Cl)c1ccncc1,10%
CC1(c2nnc(-c3ccccc3)o2)CC(c2cccnc2)=NO1 (stereo unspecified),-8%
Cc1ccc(-n2ncc3c(Nc4cccc(Cl)c4)ncnc32)c(C)c1,14%
COCCCNC(=O)CNC(=S)N(Cc1cc(OC)c(OC)c(OC)c1)C1CCCC1,-11%
O=C(CSc1ccc2nnc(-c3ccncc3)n2n1)Nc1ccc2c(c1)OCCO2,-21%
CN(Cc1ccccc1)S(=O)(=O)c1csc(C(N)=O)c1,-18%
O=C(CCN1CCCO1)N1CCCC(N2CCN(c3cccc(C(F)(F)F)c3)CC2)C1 (stereo unspecified),16%
Cc1cc(=O)n(C)c(=O)n1CCCCCN1CCCC1,2%
CCN(CC)C(=O)CSc1ncnc2c(-c3cccs3)nsc12,-5%
O=C(Cc1cccc2ccccc12)NC(NC(=S)Nc1ccccc1Cl)C(Cl)(Cl)Cl (stereo unspecified),u
CC(=O)Nc1ccc(S(=O)(=O)Nc2nc(C)nc3sc4c(c23)CCC4)cc1,5%
O=C(C[n+]1ccccc1)c1ccc(NC(=O)c2ccccc2)cc1,-2%
CC(C)Nc1nc(Cl)nc(N(C#N)CN2C(=O)c3ccccc3S2(=O)=O)n1,u
COc1ccc(N(CC(=O)N2CCCC(C)C2)S(=O)(=O)c2c(C)nn(C)c2C)cc1 (stereo unspecified),8%
CN(C)CCCNC1CS(=O)(=O)CC1O (stereo unspecified),2%
O=C(O)CC(NS(=O)(=O)c1cccc2nsnc12)c1ccc(F)cc1 (stereo unspecified),0%
Cc1ccc(S(=O)(=O)NNC(=O)CCC(=O)Nc2ccccc2Cl)cc1,1%
COc1ccc(CCNC(=O)CN2CCN(c3cccc(C(F)(F)F)c3)CC2)cc1,5%
O=C(NCc1cccc(Cl)c1)c1ccc(CS(=O)Cc2ccccc2Cl)o1 (stereo unspecified),-18%&8%
Cn1c(=O)[nH]c2cc(-c3noc(-c4ccc(F)cc4)n3)ccc21,7%
Cc1ccc(NC2=NCC(=O)N2Cc2cccs2)cc1C,0%
CCN1C/C(=C/c2cccs2)c2nc3ccccc3c(C(=O)O)c2C1,15%
COc1ccc([N+](=O)[O-])cc1NC(=O)N(C)Cc1ccco1,-26%
CC1=CC(c2ccccc2)n2nc(N3C(=O)CCC3=O)nc2N1 (stereo unspecified),4%
O=C(CCCN1C(=O)[C@H]2CC=CC[C@H]2C1=O)NCc1nc(-c2ccc(Cl)cc2)no1,-13%
Cc1ccc(S(=O)(=O)N2CCCCC2)cc1C(=O)NCc1ccccn1,16%
COc1ccccc1NC(=O)c1oc2ccc(C)cc2c1C,14%
O=C(C(=O)N1CCCC1)c1c(-c2ccccc2)[nH]c2ccccc12,-5%
COCCN1Cc2cc3cc(C)ccc3nc2SC1=Nc1ccc(OC)cc1,-11%
Cc1[nH]cnc1CSCCN,-9%

# Of the compounds above, these contain an aryl thioether with sulfur outside any ring.
SMILES,VDR inhibitor
CS(=O)(=O)N(Cc1ccc(C(=O)NCCSc2ccccn2)cc1)c1ccccc1,-16%
Cc1cccn2c(=O)c3cc(C#N)c(=O)n(-c4nnc(SCc5ccc(F)cc5)s4)c3nc12,10%
C=C(C)Cn1c(SCC(=O)N/N=C/c2cccc(O)c2)nc2ccccc2c1=O,-2%
Cc1nnc(SCC(=O)Nc2ncc3c(n2)CCCC3=O)s1,-4%
CCOC(=O)CSc1nc2c(sc3ccccc32)c(=O)n1CCCN1CCOCC1,6%
CCOC(=O)CC(=O)CSc1nccc(-c2cccnc2)n1,-6%
COc1cccc(N2CCN(CC(=O)Nc3ccc(SC(F)F)cc3)CC2)c1,-22%
Cc1cc(NC(=O)CSc2nnc3c(C)cc4cc(C)c(C)cc4n23)no1,-16%
COc1ccc(CCNC(=O)CSc2cn(CCNC(=O)c3cccc(C(F)(F)F)c3)c3ccccc23)cc1OC,-4%
CCOC(CCn1c(SCc2ccc([N+](=O)[O-])cc2)nc2ccccc2c1=O)OCC,-21%
Cc1cccnc1NC(=O)CSc1ncnc2sc(C)c(C)c12,15%
O=C(CSc1ccc2nnc(-c3ccncc3)n2n1)Nc1ccc2c(c1)OCCO2,-21%
CCN(CC)C(=O)CSc1ncnc2c(-c3cccs3)nsc12,-5%

# Bioassay records (PubChem BioAssay)
